Screening data deposited in PubChem by ICCB-Longwood Screening Facility, Harvard Medical School.
Anaer choline gr – inhibitors of anaerobic choline-dependent gram-negative bacterial growth | calls only | 55,000 tested, 0.2% active | Gram-negative bacterium anaerobic choline minimal medium, absorbance growth; active compounds read low; many inactives read as strong as hits in the columns shown;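 active means growth z-score on choline under -2 at 7 or 20 h with little or no fall on glycerol, limits in tiers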;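 further: stock transfer was 300 nL into about 50 µL; the organism is E. coli; final concentration not given here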
Anaer choline gr early – further read-out of Anaer choline gr, marked with its call; z-score; measured here: choline growth z-score, timepoint 1;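 score of optical density at 7 h as mean of two plates; lower means less growth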
* hit, by the source's call; i = inactive; & = joins results of further samples.

Anaer choline gr,Anaer choline gr early,compound
i,0.79,O=C(C1CCCN(S(=O)(=O)Cc2ccccc2Cl)C1)N1CCOCC1 (configuration not stated)
i,-0.25,Cc1ccc2[nH]c3c(c(=O)c2c1)CN(Cc1ccccc1F)CC3
i,0.74,O=C(Oc1cccc2cccnc12)c1ccc(NS(=O)(=O)c2cccc3cccnc23)cc1
i,1.4,O=C(NC1CCCC1)c1ccc(CN2C(=O)CCn3nc(-c4ccc(Cl)cc4)cc32)cc1
i,-0.78,O=C(Nc1ccc(F)cc1)N1CCSc2ncccc21
i,-0.21,CC(C)N1CCn2c(nc3cc(NC(=O)C4CCCCC4)ccc32)C1
i,0.54,COc1ccc(NC(=O)Cc2ccc3nc(NC(C)=O)sc3c2)cc1
i,-0.3,O=C(Cn1nc2c(N3CCOCC3)nc3ccccc3n2c1=O)NC1CCCC1
i,1.1,CCOc1ccc(Nc2cc(C)nc3c(C)c(-c4ccc(OC)c(OC)c4)nn23)cc1
i,-0.25,COC(=O)c1cccc(-n2c(CCC(=O)O)ccc2-c2ccccc2)c1
i,0.56,Cc1cc2nc(COC(=O)c3ccccc3NC(=O)COc3ccccc3F)cc(=O)n2o1
i,-0.47,NS(=O)(=O)c1ccc(C(=O)O)cc1
i,0.63,Cc1ccc(C2=Nc3ccccc3NC(=O)C2)cc1
i,0.77,Cc1oc(-c2ccccc2)nc1Cn1nnc(-c2nc(-c3cccc(F)c3)no2)c1C
i,0.99,Cc1ccc(CNC(=O)CSc2nc3c(-c4ccccc4)csc3c(=O)n2C)cc1
i,0.42,O=S(=O)(c1cccc2nsnc12)N1CCC(c2ccncc2)CC1
i,-0.48,Cc1cc2nc(COc3cccc(NC(=O)C4CC4)c3)cc(=O)n2o1
i,-1.4,O=S1(=O)N=CN(c2cc(F)cc(F)c2)c2ncccc21
i,-1.6,CCOCCCNC(=O)N1CCC2(C1)C(=O)Nc1ccccc12 (configuration not stated)
i,0.41,Clc1cccc2c1CN(C1=NCCN1)C2

A draw from above in order of formula weight, rising.
Anaer choline gr,Anaer choline gr early,compound
i,-1.6,CCOCCCNC(=O)N1CCC2(C1)C(=O)Nc1ccccc12 (configuration not stated)
i,-0.25,COC(=O)c1cccc(-n2c(CCC(=O)O)ccc2-c2ccccc2)c1
i,0.79,O=C(C1CCCN(S(=O)(=O)Cc2ccccc2Cl)C1)N1CCOCC1 (configuration not stated)
i,1.1,CCOc1ccc(Nc2cc(C)nc3c(C)c(-c4ccc(OC)c(OC)c4)nn23)cc1
i,0.99,Cc1ccc(CNC(=O)CSc2nc3c(-c4ccccc4)csc3c(=O)n2C)cc1
i,1.4,O=C(NC1CCCC1)c1ccc(CN2C(=O)CCn3nc(-c4ccc(Cl)cc4)cc32)cc1

Later entries.
Anaer choline gr,Anaer choline gr early,compound
i,0.07,Cc1cc(SCC(=O)NC(C)C)n2ncc(-c3ccc(F)cc3)c2n1
i,0.8,Cc1ccccc1Nc1c(-c2ccc(N3CCOCC3)cc2)nc2ccccn12
i,1.7,Cc1cc(SCC(=O)Nc2c(F)cccc2F)nc2ccc(S(=O)(=O)N3CCCC3)cc12
i,-0.42,CCCOc1ccc(-c2noc(Cc3nc(-c4ccc(F)cc4)cs3)n2)cc1
i,-0.13,Cc1nc(NC2=NCN(Cc3cccnc3)CN2)nc2c(C)cccc12
i,1.4,CCCNC(=O)N1Cc2c(sc3c2CCCC3)-n2cccc2C1C(C)C (configuration not stated)
i,0.11,COc1ccc(NC(=O)CCS(=O)(=O)c2ccc3c(c2)NC(=O)CCS3)cc1OC
i,-1.3,COC(=O)c1cc(S(=O)(=O)NC2CC2)c(C)n1C
i,-0.03,Cn1cnc2cc(-c3noc(-c4ccc(F)cc4)n3)ccc21
i,2.5,COc1cc(=O)n(-c2ccc(F)cc2)nc1C(=O)Nc1ccccc1O
i,0.71,Cn1c(C(=O)N2CCC(C(=O)NCc3ccccc3)CC2)cc2oc3ccccc3c21
i,-1.2,Fc1ccccc1-c1noc(N2CCCCC2)n1
i,-0.63,COCCCNC(=O)C(C)C1CCN(S(=O)(=O)c2cccs2)CC1 (configuration not stated)
i,1.1,Cc1nc2nc3c(c(Nc4ccc(Br)c(C)c4)n2n1)CCCC3
i,-0.36,O=C(Nc1cc(Br)ccc1O)c1cc(-c2ccc(F)cc2)on1
i,-0.11,O=C(c1ccccc1)N1CCc2cc(CNS(=O)(=O)c3ccccc3F)ccc21
i,-1.4&0.54,CC(=O)OCC[N+](C)(C)C
i,0.88,COc1ccccc1N1CCN(C(c2ccccc2)c2nnc(-c3ccc(Cl)cc3)o2)CC1 (configuration not stated)
i,-0.52,Cc1nc(-c2ccc(F)cc2)sc1CCNS(=O)(=O)c1ccccc1
i,-0.66,CCC(=O)n1nc(-c2cccc(C)c2)nc1N

An excerpt of these results, with values under each structure:
Order of values: Anaer choline gr, Anaer choline gr early
COc1ccc(NC(=O)CCS(=O)(=O)c2ccc3c(c2)NC(=O)CCS3)cc1OC
  i, 0.11
Cc1nc(-c2ccc(F)cc2)sc1CCNS(=O)(=O)c1ccccc1
  i, -0.52

Following part
Anaer choline gr,Anaer choline gr early,compound
i,1,Cc1ccc(S(=O)(=O)N2CCc3nc(N4CCCCC4)ncc3C2)cc1
i,-1.3,O=C(Nc1ccnn1C1CCCC1)c1ccc(F)cc1
i,1.8,CCOc1cc(-c2cccc(OC)c2)nc2ccc(C(=O)Nc3ccccc3O)cc12
i,-1.7,CC1(C)C(=O)NC2=C1C(=O)C(=O)c1ccccc12
i,-1.6,O=S1(=O)N=CN(c2ccc(F)c(F)c2)c2ncccc21
i,0.4,COc1ccc(NC(=O)Cn2nc3c(Sc4cccc(OC)c4)nc4ccccc4n3c2=O)cc1
i,1.1,CC1CCN(c2cc(-c3nc(-c4ccccc4)no3)c3ccccc3n2)CC1
i,0.38,COc1ccc(-c2c3c(=O)n(C)c(=O)n(C)c3c3n2C(C)(C)COC3c2c[nH]c3ccccc23)cc1 (configuration not stated)
i,-0.5,CCNC(=O)CC1Sc2ccccc2NC1=O (configuration not stated)
i,-0.31,COc1ccc(-c2cnn3c(C)cc(C)nc23)cc1S(=O)(=O)N1CCN(C2CCCCC2)CC1
i,1.2,O=C(NC1CCCC1)c1cccc(Oc2cc(-c3cccc(F)c3)ncn2)c1
i,0.27,Cc1ccc(-c2ccc(-n3nc(C)c(S(=O)(=O)NCC4CCCO4)c3C)nn2)cc1C (configuration not stated)
i,-0.57,O=S(=O)(Cc1ccccc1F)N1CCOc2ccc(COCc3ccc(F)cc3)cc2C1
i,-0.26,O=S(=O)(Nc1ccc(-c2ccc(N3CCOCC3)nn2)cc1)c1ccc2c(c1)OCCO2
i,-0.56,O=C(NC1CCCC1)C1CCCN(C(=O)c2cc(-c3ccccn3)n[nH]2)C1 (configuration not stated)
i,0.87,Cc1ccc(S(=O)(=O)n2nc(-c3cccnc3)nc2NCc2ccccc2)cc1
i,-0.79,Cc1ccc(NC(=O)c2cnc3ccccn3c2=O)cc1F
i,0.99,Cc1cc(C)c(NS(=O)(=O)c2cc(-c3cc(C(F)(F)F)on3)sc2C)c(C)c1
i,1.2,CN1C(=O)C(c2c(-c3ccc4ccccc4c3)[nH]c3[nH]c(=O)[nH]c(=O)c23)c2ccccc21 (configuration not stated)
i,0.71,CCOC(=O)c1cc(-c2ccc(OC)c(S(=O)(=O)N3CCN(c4ccccn4)CC3)c2)on1

The list goes on:
Anaer choline gr,Anaer choline gr early,compound
i,-0.23,Cc1ccc(-n2nc(C)c3c(=O)n(CC(=O)NCCC4=CCCCC4)ccc32)cc1
i,-1.2,O=C(Nc1cccnc1)C1CCN(S(=O)(=O)c2cccnc2)CC1
i,0.54,O=C(NCC1CC1)C1CCN(c2cnc(N3CCSCC3)nc2)CC1
i,-1.1,CCNC(=O)c1cc2c(cc1C)OCCCO2
i,1,Cc1ccc(NC(=O)c2ccc3c(c2)NC(=O)CO3)c(C)c1
i,-0.45,O=S(=O)(Nc1ccc(-c2ccc(N3CCCC3)nn2)cc1)c1ccc(F)cc1
i,-0.74,COc1cccc(N2CCN(C(=O)C(C)C3CCN(S(=O)(=O)c4c(C)noc4C)CC3)CC2)c1 (configuration not stated)
i,0.51,O=C(NCc1cccnc1)c1cc(-c2cccnc2)nc2ccc(Br)cc12
i,-0.68,Cc1cccc(N2CCN(C(=O)c3cnc4scc(C)n4c3=O)CC2)c1C
i,-0.46,c1ccc(N2CCN(c3nc(Nc4ccc5c(c4)OCO5)c4cnn(-c5ccccc5)c4n3)CC2)cc1
i,-0.42,O=C(CSc1nnc2c3sc(N4CCCC4)nc3ncn12)Nc1ccc(F)c(Cl)c1
i,0.38,Cc1cccc(NC(=O)CSc2nccn2-c2ccc(C(=O)NCc3ccccc3)cc2)c1
i,-0.96,Cc1nn(-c2nc3ccc(Br)cc3s2)c2c1C(c1ccccc1F)CC(=O)N2 (configuration not stated)
i,0.75,CCN1CCc2nc(N)oc2CC1
i,0.03,Cc1nc2cccnc2n1C1CCN(S(C)(=O)=O)CC1
i,0.92,Cc1cc(C)c2c(-n3cccc3)nn(CCCC(=O)NCc3ccc(Cl)cc3)c2n1
i,-0.13,COc1ccccc1Oc1ccc(NC(=O)c2cc3cc(Br)ccc3o2)cn1
i,0.04,CCc1onc(C)c1C1CCCN1C(=O)c1c(Cl)cnn1C (configuration not stated)
i,-0.33,O=S(=O)(Nc1cc(-c2ccoc2)no1)c1ccc(F)cc1F
i,-0.21,CCOC(=O)c1[nH]c(C)c(CN(C(=O)C2CC2)C2CCCCC2)c1C

Other compounds follow:
Anaer choline gr,Anaer choline gr early,compound
i,-0.56,CCCCN1CCn2c(nc3cc(NS(C)(=O)=O)ccc32)C1
i,0.76,CC(C)CC(=O)Nc1ccc(S(=O)(=O)Nc2cccc(-c3ccc4ccccc4n3)c2)cc1
i,-0.3,CCOC(=O)c1[nH]c(C)c(S(=O)(=O)Nc2ccc3c(c2)OCO3)c1C
i,-0.09,O=C(Cn1nc(C(=O)Nc2ccccc2)ccc1=O)Nc1ccc2c(c1)OCO2
i,1.9,O=C(Nc1nnc(SCc2nnc(-c3ccccc3)o2)s1)c1ccccc1F
i,-0.04,CCC(C)NC(=O)c1cccc(Nc2cc(-c3cccc(C)c3)ncn2)c1 (configuration not stated)
i,0.82,CC1CCC(C(=O)NC(Cc2c[nH]c3ccccc23)C(=O)NCc2ccccn2)CC1 (configuration not stated)
i,0.33,COc1cccc(NC(=O)C2CCCN(S(=O)(=O)c3cc(-c4noc(C)n4)cs3)C2)c1 (configuration not stated)
i,-0.55,O=C(NCc1ccc(F)cc1)c1c(-c2ccc(F)cc2)nc2n1CCS2(=O)=O
i,0.94,Cc1cccc(N2CCN(S(=O)(=O)c3cc(-c4cc(C)no4)cs3)CC2C)c1 (configuration not stated)
i,-0.52,CCn1c(=O)c(N2CCC(C(=O)NCc3ccc(F)cc3)CC2)nc2cccnc21
i,-0.2,CCOc1ccccc1C(=O)N1CCCC(C)(C(=O)NCc2cccc(OC)c2)C1 (configuration not stated)
i,-0.37,COc1ccc(-c2noc(-c3nn(-c4ccc(C)cc4)ccc3=O)n2)cc1OC
i,-0.97,COCc1cnc2c(c1SCC(=O)N1CCC(C)CC1)c(=O)n(C)c(=O)n2C
i,-0.66,Cc1cc(C)n(CC(=O)Nc2ccccc2)c(=O)c1S(=O)(=O)c1ccc(Br)cc1
i,0.63,Cc1sc(C)c(S(=O)(=O)NC2CC2)c1-c1cc(C(F)(F)F)on1
i,-0.34,COc1ccccc1OCc1nn2c(-c3cc(C)[nH]n3)nnc2s1
i,-0.64,CCOCCCNC(=O)c1cc2cc(S(=O)(=O)N(C)C)ccc2n1Cc1ccncc1
i,0.33,Cc1ccc(NC(=O)c2nnc(CNC(=O)c3cccnc3)s2)cc1
i,0.85,COc1ccc(CNC(=O)C2(C)Cc3ccccc3C(=O)N2Cc2cc(OC)cc(OC)c2)cc1 (configuration not stated)

(cont.)
Anaer choline gr,Anaer choline gr early,compound
i,0.57,O=C(CC1CSc2ccccc2NC1=O)NC1CCCCC1 (configuration not stated)
i,-1.2,NS(=O)(=O)c1ccc(NC(=O)Cc2csc(NC(=O)NC3CCCC3)n2)cc1
i,-0.44,Cc1cccc(NC(=O)Nc2ccc(OCc3cc(=O)n4ccccc4n3)cc2)c1C
i,0.28,O=C(Nc1cc(-c2ccsc2)no1)c1ccc(Br)o1
i,0.63,O=C(Cn1c2ncccc2c(=O)n1-c1ccccc1)Nc1ccc2c(c1)OCCO2
i,-0.57,Clc1ccccc1-c1ccc(CNCCCn2ccnc2)o1
i,0.46,Cc1ccc(S(=O)(=O)NCC(c2ccccc2)N(C)C)cc1 (configuration not stated)
i,-0.95,CCOc1ccc(NC(=O)N(C)CCc2noc(-c3ccc(Cl)cc3)n2)cc1
i,-1.7,Cc1[nH]c(C(=O)N2CCC(CC(=O)N3CCN(c4ccccc4)CC3)CC2)c(C)c1C(=O)OC(C)C
i,0.22,CC1CCN(S(=O)(=O)c2ccc3c(c2)oc(=O)n3CC(=O)N2CCc3ccccc3C2)CC1
i,-1.7,COC(=O)C1=CN(c2ccc3c(c2)OCO3)c2cc(F)ccc2S1(=O)=O
i,-0.75,CC1(C)CC(=O)C2=C(C1)Nc1ccccc1N(C(=O)Nc1ccc(F)cc1)C2c1ccccc1 (configuration not stated)
i,-0.22,O=C(COc1ccc(F)cc1)Nc1cccc(OCc2cc(=O)n3cc(Cl)ccc3n2)c1
i,-1.2,O=C(NCCn1c(CCc2ccccc2)nc2ccccc21)Nc1ccccc1Br
i,0.82,CCc1noc2nc(C)nc(N3CCCC(C(=O)O)C3)c12 (configuration not stated)
i,-1.2,COc1ccc2nc(NC(=O)c3nn(C)c4c3COc3ccccc3-4)sc2c1

Entries from the list above containing a CF3 group, in the order listed:
Anaer choline gr,Anaer choline gr early,compound
i,0.99,Cc1cc(C)c(NS(=O)(=O)c2cc(-c3cc(C(F)(F)F)on3)sc2C)c(C)c1
i,0.63,Cc1sc(C)c(S(=O)(=O)NC2CC2)c1-c1cc(C(F)(F)F)on1

Not all compounds are listed. The share of hits here may be higher or lower than overall.
